PrP UTR inh: suppresses PrP 5' UTR mRNA reporter expression. cell-based PrP 5' UTR mRNA reporter, plate reader. 340,000 compounds, 0.35% hits. AID 488862. inhibition, % (test concentration not listed);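 active means every replicate at 50% or more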;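 further: 0 = median of the neutral control wells; tested in H4 reporter cells; numbers are from one replicate; inactives centre near -14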
RN4220 kill: kills Staphylococcus aureus RN4220. S. aureus RN4220 growth, OD600, 16 h. inhibition, % (test concentration not listed). 330,000 compounds, 0.33% hits. AID 1259311;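 active means z-score of -3 or lower and OD600 up to 0.18 on both plates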;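 further: plate controls were untreated cells for no effect and reference antibiotic for full effect; stock transfer was 100 nL into about 80 µL; one replicate is shown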
Mtb hypoxia inh: reduces hypoxia-regulated biosensor signal in M. tuberculosis. M. tuberculosis hypoxia-regulated fluorescent reporter, fluorescence. fluorescence inhibition, % (no concentration beside the values). 300,000 compounds, 0.1% hits;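 active means 35 to 45% if threefold the growth effect, above 45% if 1.5-fold the growth effect; inactive means the rest, general growth blockers included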;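 further: wells of about 50 µL received 100 nL stock; 0% = vehicle wells and 100% = reference inhibitor wells; whole bacteria with a GFP reporter of the hypoxia response; strong numbers were not always called active; many hits fall short of the cut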
Autofluor counter: counter-screen for toxin protease inhibitors: compound fluorescence; fluorescence intensity (concentration not given with the values); compound autofluorescence counterscreen, microsphere flow cytometry; hits give high values; AID 624483; 360,000 compounds, 3.1% hits;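 active means at least 3 SD above the mean of all compounds, about 16000 in these data; inconclusive means too few beads counted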;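 further: 100 nL of 1 mM stock went into each well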
BJeLR viability: kills HRASV12-expressing BJeLR cells; BJeLR (HRASV12) viability, CellTiter-Glo ATP luminescence, 48 h; reference of the scale not given here; 300,000 compounds, 0.17% hits; inhibition, % (no concentration beside the values);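 active means replicate mean above 50%; inconclusive means above 50% but judged a plate artefact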;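 further: 50 nL library stock added to about 25 µL; numbers are from one replicate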
ugtP null kill: kills S. aureus RN4220 lacking UgtP; growth inhibition, % (concentration not given with the values); 330,000 compounds, 0.54% hits; S. aureus RN4220 ugtP deletion, OD600 growth, 16 h; some inactives read as strong as hits;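 active means z-score under -3 and OD600 up to 0.15 on both plates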;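 further: plate controls were untreated wells for no effect and antibiotic for full effect; wells of about 80 µL received 100 nL stock; the first replicate is given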
Mtb hypoxia inh growth: recorded beside Mtb hypoxia inh, whose call it bears; growth inhibition, %; measured here: M. tuberculosis growth (absorbance);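 0% = vehicle and 100% = reference antibiotic; read after six days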
An asterisk follows results filed as active; u = inconclusive; x = not tested or not shown.

SMILES	PrP UTR inh	RN4220 kill	Mtb hypoxia inh	Mtb hypoxia inh growth	Autofluor counter	BJeLR viability	ugtP null kill
Cc1ccc(-c2nc(COC(=O)C3=NN(c4ccccc4)C(=O)CC3)cs2)cc1	-33	-2.4	-8	1	3874	x	-8
O=C(Nc1ccc2ncccc2c1)c1cccc(Br)c1	-87	6.6	-5	-2	2903	-6	8
O=C(Nc1ccccc1)OCC1CCCN2CCCCC12 (stereo not drawn)	46	0.3	x	x	5190	6	0
Cc1ccccc1C(=O)NN1C(=O)CSC1=S	-12	5.1	6	4	6652	0	-5
C/C(=N\Nc1ccc(Cl)c(C(=O)O)c1)c1cccc([N+](=O)[O-])c1	-9	x	x	x	u	9	x
COc1ccc2oc(=O)c(C(=O)C[n+]3cccc(C)c3)cc2c1	-17	-0.4	4	2	3916	6	0
COC(=O)Nc1ccc(S(=O)(=O)N2CCCc3ccccc32)cc1	31	14	7	5	16570*	-6	-13
Cc1nnc(SCC(=O)Nc2ccccc2F)n1Cc1ccco1	-27	3.9	11	7	5042	2	5
COc1ccc(-c2nnn(CC(=O)N(CC(=O)NC3CCCC3)c3ccccc3)n2)cc1OC	-20	2.3	-7	4	4815	5	6
Cc1scc(-c2n[nH]c(=S)n2C(C)c2ccccc2)c1C (stereo not drawn)	-1	11	x	x	2582	-16	-4
O=C(CSc1ccccc1)N1CCCC(Nc2ccccc2)C1 (stereo not drawn)	-2	4.3	-4	-1	5329	-1	-6
COc1ccccc1/C=C\C=N\n1c(-c2ccc(Cl)cc2)n[nH]c1=S	-8	x	x	x	2407	-3	x
CC1(C)CNC(=O)CC(C)(C)N1	-8	x	x	x	2497	4	x
CC(C)COc1ccc(C(=O)OCC(=O)NCc2cccs2)cc1	-49	2.4	4	2	3387	x	10
O=C(NN=Cc1cccc(OC(=O)c2ccc3c(c2)OCO3)c1)c1cncc(Br)c1	x	3.9	10	3	x	x	5
O=C(N/N=C/c1ccc(OCc2ccc(F)cc2)cc1)c1ccccc1	-9	x	x	x	4445	-7	x
CC(C)NS(=O)(=O)c1ccc2c(c1)NCC2	-6	5.8	x	x	2081	3	0
CC(C)NC(=O)CSc1ccccc1C(=O)N1CCN(S(=O)(=O)Cc2ccccc2)CC1	-18	2.2	0	-6	x	x	2
Cc1c(C)c2c(c(C)c1O)CC[C@@](C)(CCCC(C)CCCC(C)CCCC(C)C)O2 (stereo partly drawn)	x	5.9	0	-3	x	x	1
CC1CN(C(C)CO)C(=O)Cc2cc(NC(=O)C3CC3)ccc2OC1CN(C)Cc1ccc(Oc2ccccc2)cc1 (stereo not drawn)	x	5.0	5	8	x	x	9
COc1ccc(N2CCN(C(=O)c3cc(C)on3)CC2)cc1	-17	1.2	2	-3	x	2	-1
CCC(C)c1ccccc1OCCn1ccnc1 (stereo not drawn)	-4	5.5	11	-1	2176	-14	2
O=C(c1ccco1)N1N=C(c2ccc(Br)cc2)CC1(O)C(F)(F)F (stereo not drawn)	-9	19	6	-5	4894	1	-10
O=C(CCCC(=O)N(CC(=O)NC1CCCC1)Cc1ccc2c(c1)OCO2)Nc1ccccn1	-56	-14	17	11	2776	10	-4
Cc1ccccc1Nc1nc(N)nc(CSc2nnc(-c3ccccc3)n2C)n1	-42	6.9	-8	18	2768	-4	-3

Structures listed so far with a thiophene ring, fused or not (two):
SMILES	PrP UTR inh	RN4220 kill	Mtb hypoxia inh	Mtb hypoxia inh growth	Autofluor counter	BJeLR viability	ugtP null kill
Cc1scc(-c2n[nH]c(=S)n2C(C)c2ccccc2)c1C (stereo not drawn)	-1	11	x	x	2582	-16	-4
CC(C)COc1ccc(C(=O)OCC(=O)NCc2cccs2)cc1	-49	2.4	4	2	3387	x	10

(listing goes on)
SMILES	PrP UTR inh	RN4220 kill	Mtb hypoxia inh	Mtb hypoxia inh growth	Autofluor counter	BJeLR viability	ugtP null kill
C[C@@H]1CN([C@H](C)CO)C(=O)Cc2cc(NS(=O)(=O)c3cn(C)cn3)ccc2O[C@H]1CN(C)S(=O)(=O)c1ccc(Cl)cc1	6	3.4	1	14	3732	x	4
CCOC(=O)C1CCN(C(=O)Nc2ccc3nccnc3c2)CC1	-15	-0.7	x	x	5014	-12	-8
COc1cccc(C2CC(c3ccc(C)cc3)n3ncnc3N2)c1 (stereo not drawn)	-15	5.0	x	x	5308	-12	3
COC(=O)C1=C(c2cccc(OC)c2OC)C[C@@H]2CC[C@H]1N2C(=O)NCC1CC1	-15	x	x	x	3610	12	x
[O-][n+]1c2c(nn1-c1ccccc1Cl)-c1nonc1CC2	-21	4.5	2	-3	5120	8	3
Cc1cnc(C(=O)OC(C(=O)Nc2cc(C(F)(F)F)ccc2Cl)c2ccccc2)cn1 (stereo not drawn)	-28	-0.9	-2	-4	6215	-16	-3
Cc1cc(C)cc(C(=O)NCCn2cc(SCC(=O)N3CCOCC3)c3ccccc32)c1	7	-8.0	0	9	5402	10	-9
CNc1nc(OCC(F)(F)F)nc(OCC(F)(F)F)n1	-1	2.7	5	14	4249	-7	10
O=C(O)c1cc(S(=O)(=O)N2CCN(C(=O)c3ccco3)CC2)c(Cl)cc1Cl	18	0.0	-14	9	3887	-1	-2
NC(=O)c1ccc(-n2nnnc2SCC(=O)Nc2ccc(N3CCOCC3)c(Cl)c2)cc1	-1	-1.6	x	x	2749	-7	4
Cc1c(O)cc2n(c1=O)-c1ccc(Cl)cc1C2(C)C	-1	0.4	x	x	2456	0	2
C=CCn1c(C)cc(C(=O)CSc2ccc(NC(C)=O)cc2)c1C	-33	3.7	x	x	3109	4	-5
CCCc1[nH]nc2c1C1(C(=O)N(CC)c3ccccc31)C(C#N)=C(N)O2 (stereo not drawn)	-31	14	9	11	8014	6	-8
CCn1c(N)c(C(=O)NCCCOC)sc1=S	-12	-21	5	10	u	8	0
CCc1ccccc1NS(=O)(=O)c1ccc(SC)cc1	-5	95*	11	9	3134	4	89*
COc1ccc(N(C)S(=O)(=O)c2cccc(C(=O)NC3CCCCCC3)c2)cc1	-31	x	x	x	4463	-1	x
S=C1CCSc2ccc(Cl)cc2N1	-24	x	x	x	4064	-10	x
COc1ccc(CNC(=O)CSc2nnc(C(F)(F)F)n2C)cc1	-14	-3.9	2	1	5123	2	-6
NC(=O)Nc1ccc(C(=O)OCC(=O)N2CCc3ccccc3C2)cc1	x	5.3	12	-2	x	x	5
Cc1cc(C)c(S(=O)(=O)N2CCN(C(=O)N(C)C)CC2)c(C)c1	-23	3.8	-1	5	3449	3	0
Cc1ccc(C(=O)NN=Cc2ccccc2[N+](=O)[O-])cn1	x	1.9	-2	-6	x	x	1
S=C(Nc1ccc2c(c1)OCCO2)Nc1ccc2c(c1)OCO2	-20	6.2	x	x	4392	0	9
COc1cc(OC)cc(C(=O)Nc2ccccc2C(=O)NCc2cccnc2)c1	-3	5.4	-2	-1	4749	-2	2
CNC(=S)N1C2CCC1CC(NC(=O)NC13CC4CC(CC(C4)C1)C3)C2 (stereo not drawn)	-1	1.8	9	4	7871	2	-1
CCC1(CC)C(=O)C2=C3C1[C@H](C(=O)OC)C=C(C(=O)OC)C[C@H]3[C@H]1C(=O)NC(=O)[C@H]1[C@H]2C (stereo partly drawn)	3	x	x	x	3848	9	x

More compounds:
SMILES	PrP UTR inh	RN4220 kill	Mtb hypoxia inh	Mtb hypoxia inh growth	Autofluor counter	BJeLR viability	ugtP null kill
O=C(COc1ccc(S(=O)(=O)N2CCCC2)cc1)NCCC1=CCCCC1	-6	11	11	4	5136	0	-1
O=C(C[n+]1ccccc1)N/N=C/c1ccco1	-18	x	x	x	3568	2	x
O=c1[nH]c(SCc2ccccc2)nnc1-c1ccccc1	-20	13	18	5	9111	4	-2
COc1ccc(-c2ccc(-c3noc(-c4ccco4)n3)c(OC)n2)cc1	-37	22	1	-2	10183	7	-8
CC1CN(S(=O)(=O)c2ccc(C(=O)OCc3ccc(C#N)cc3)cc2)CC(C)O1 (stereo not drawn)	-17	1.4	2	1	5370	x	-1
COc1ccc(C2C3=C(CC(C)(C)CC3=O)Oc3ncn(Cc4ccco4)c(=N)c32)cc1 (stereo not drawn)	4	3.9	-1	2	8601	-6	21
CC(=O)Nc1ccc(S(=O)(=O)N=S(C)C)cc1	-18	2.5	x	x	3542	6	1
O=C(Nc1ccccn1)c1ccc2c(=O)n3c(nc2c1)CCCCC3	-6	2.9	7	8	4205	x	4
O=C(Nc1cccc(Cl)c1)c1nc[nH]c1C(=O)N1CCN(c2ccccc2)CC1	-10	-2.5	-5	-5	4082	x	-25
O=C(CC(c1ccccc1)c1ccccc1)OCn1nnc2ccccc2c1=O	-11	-2.6	x	x	2990	-4	39
CN(C)S(=O)(=O)c1ccc(Cl)c(NC(=O)COC(=O)CC(NC(N)=O)c2ccc(Cl)cc2)c1 (stereo not drawn)	-6	0.4	14	4	4829	-7	6
COCC(=O)Oc1c(S(=O)(=O)c2ccc(C)cc2)c(C)nn1-c1ccccc1	-3	6.5	x	x	3599	2	14
O=C(COC(=O)C1=COCCO1)Nc1ccc(OC(F)F)cc1	0	5.1	4	6	3331	-9	2
Cc1ccsc1/C=C(/C#N)C(=O)NCc1ccccc1	-26	1.6	0	13	10421	-5	4
Cc1cc(C)c(C)c(S(=O)(=O)N2CCN(C(=O)CCC(=O)N3CCOCC3)CC2)c1C	-29	2.6	6	5	4124	3	9
Cc1cccc(CCNC(=O)Cc2ccc(NC3=NC4CS(=O)(=O)CC4S3)cc2)c1 (stereo not drawn)	-39	-14	8	6	5810	-4	-3
COC(=O)CNC(=O)c1cccc(F)c1	-4	1.7	x	x	2844	-8	-2
CC1Cc2nc(SCC(=O)Nc3ccccc3F)n(C)c(=O)c2S1 (stereo not drawn)	-30	5.6	x	x	5224	x	-4
O=C(N/N=C/c1cnc(N2CCCCC2)s1)c1ccc(Cl)cc1	-24	x	x	x	4363	2	x
Cn1c(=O)[nH]c(=O)c2c1nc(N1CCNCC1)n2Cc1ccccc1Cl	-9	0.4	13	7	3700	-7	5
Cc1ccc(S(=O)(=O)Nc2ccc(Cl)cc2C(=O)c2ccc(F)cc2)cc1	-3	11	3	-1	2493	-9	-9
COc1ccc(Cl)cc1NC(=O)CN(C)Cc1ccc(OC)c(OC)c1	-34	-3.0	14	0	4455	6	1
CC(c1ccccc1)C(OC(=O)c1cccc([N+](=O)[O-])c1C(=O)O)c1ccccc1 (stereo not drawn)	-30	2.4	14	13	4150	x	-1
Cc1cccc(NCc2nnc(-c3ccccc3)o2)c1C	-19	7.7	x	x	3311	9	6
CCOC(=O)c1sc(NC(=O)c2ccc3ncsc3c2)nc1C	-52	3.8	6	6	4335	-14	3

Additional results follow.
SMILES	PrP UTR inh	RN4220 kill	Mtb hypoxia inh	Mtb hypoxia inh growth	Autofluor counter	BJeLR viability	ugtP null kill
COCCNC(=O)C(c1ccc(Cl)cc1)N(CCOC)C(=O)CCC(=O)Nc1ccccn1 (stereo not drawn)	-25	-1.4	8	5	3527	-10	7
Cc1nn(-c2ccccc2)c(C)c1C(=O)OC(C)C(=O)NC1CCCCC1 (stereo not drawn)	-10	3.7	8	19	3783	x	5
CCc1nn(CC(=O)NCCCN2CCc3ccccc3C2)c(=O)c2cc3sccc3n12	-14	-1.6	x	x	6341	2	5
NC(=S)c1cc2cc(Cl)ccc2oc1=O	x	2.6	6	10	5984	2	14
O=C(Cc1ccccc1)NCC(=O)NN=Cc1cccs1	x	1.4	-3	-1	x	x	3
O=C(NCCc1ccccc1)c1ccncc1	x	4.5	-1	14	x	7	2
CCC1CCCCN1CCCNC(=O)Cn1c2ccccc2c2nc(=O)cc(C)n21 (stereo not drawn)	13	2.9	3	10	6011	-9	3
COc1ccccc1CC(=O)NNC(=O)c1ccc(C(C)(C)C)cc1	-19	1.4	7	-1	5620	5	4
CCOc1ccc(C(=O)COC(=O)Cc2n[nH]c(=O)c3ccccc23)cc1	-12	3.0	6	1	6520	27	-2
COc1ccccc1CNC(=O)Cn1c(=O)oc2cc(S(=O)(=O)N3CCCC3)ccc21	-28	-0.3	12	6	4877	2	12
CC1(c2ccccc2)NC(=O)N(CC(=O)N2CCN(S(=O)(=O)c3cccc(C(F)(F)F)c3)CC2)C1=O (stereo not drawn)	-7	1.7	4	0	2912	x	9
CCN1CCN(c2nnc(-c3ccccc3)c3ccccc23)CC1	-18	1.7	11	4	3529	2	-1
CN(CCCOc1ccccc1F)Cc1ccccc1	11	2.5	-5	14	4121	6	-1
